Screening results as filed in PubChem.
KCNQ2 enhance = KCNQ2 (rat) channel potentiation; CHO-K1 KCNQ2, FluxOR thallium flux fluorescence; stronger effect = higher value; B-score at 10 µM; 310,000 tested, 0.54% active; AID 2239;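 active = fluorescence ratio B-score at least 3 SD of library B-scores, with initial fluorescence B-score within 3 SD, cut at about 5.3 in these data; same plate scores as AID 2156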;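 also: B-score of peak minus minimum over baseline fluorescence ratio after K+ and Tl+ stimulus; positive B-score means potentiation of KCNQ2 with more thallium influx and brighter signal; only the inactives scoring about 0 or higher are listed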
Target sequence (O88943 whole entry, looked up): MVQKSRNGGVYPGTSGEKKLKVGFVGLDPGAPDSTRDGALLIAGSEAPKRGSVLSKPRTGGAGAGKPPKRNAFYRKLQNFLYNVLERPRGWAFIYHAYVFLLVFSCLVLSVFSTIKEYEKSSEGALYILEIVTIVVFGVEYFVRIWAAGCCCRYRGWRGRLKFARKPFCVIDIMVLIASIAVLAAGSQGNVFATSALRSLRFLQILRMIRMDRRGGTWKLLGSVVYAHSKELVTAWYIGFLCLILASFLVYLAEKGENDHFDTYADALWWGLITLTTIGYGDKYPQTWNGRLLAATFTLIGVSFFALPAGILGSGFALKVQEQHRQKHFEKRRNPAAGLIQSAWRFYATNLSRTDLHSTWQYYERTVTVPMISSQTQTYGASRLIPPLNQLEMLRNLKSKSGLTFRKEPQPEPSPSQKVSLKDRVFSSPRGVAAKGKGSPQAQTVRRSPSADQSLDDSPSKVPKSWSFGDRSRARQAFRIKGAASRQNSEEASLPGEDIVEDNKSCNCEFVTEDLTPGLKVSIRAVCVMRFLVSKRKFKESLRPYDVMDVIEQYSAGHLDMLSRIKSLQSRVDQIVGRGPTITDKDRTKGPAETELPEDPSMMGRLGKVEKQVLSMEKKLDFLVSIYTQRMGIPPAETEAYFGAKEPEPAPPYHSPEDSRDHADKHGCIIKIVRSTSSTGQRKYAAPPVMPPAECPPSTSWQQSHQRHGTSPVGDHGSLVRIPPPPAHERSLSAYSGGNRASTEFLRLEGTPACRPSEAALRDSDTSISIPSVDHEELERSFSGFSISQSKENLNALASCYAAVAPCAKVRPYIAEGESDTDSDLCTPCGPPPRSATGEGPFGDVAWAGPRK
KCNQ2 enhance baseline = second read-out of KCNQ2 enhance, no call of its own (marks repeat the call); B-score; compound at 10 µM; measured here: initial fluorescence intensity artifact check;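 brightness before thallium and not channel activity; 0 = typical well and far values either way flag optical interference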
The depositor's hits bear a star.

mol	KCNQ2 enhance	KCNQ2 enhance baseline
CC(=O)Nc1ccc2nc(SCC(=O)Nc3ccc(N4CCOCC4)c(Cl)c3)sc2c1	0.96	-2.38
O=Cc1cccnc1SCc1ccccc1	0.44	0.08
COc1cccc(CC(NC(C)=O)C(=O)NC2CCN(c3nnnn3-c3ccccc3)CC2)c1 (stereo not given)	0.02	-0.09
O=C(C1CCCN(c2ncnc3c2nc2n3CCCCC2)C1)N1CCCCC1 (stereo not given)	0.19	-0.24
CCOC(=O)c1ccc(NC(=O)c2c(N)n(C)c(=O)n(C)c2=O)cc1	1.08	-0.39
O=C(c1cc2ccccc2s1)N1CCOCC1	1.6	-1.27
Cc1[nH]c2ccc(F)cc2c1CCN(Cc1cccnc1)C(=S)Nc1ccccc1	0.1	0.03
N#C/C(C(=O)N1CCOCC1)=C1/SC(Cc2ccccc2Cl)C(=O)N1c1ccccc1 (stereo not given)	0.16	0.06
COCCN1C(=O)C(=O)/C(=C(/O)c2ccc(C)cc2)C1c1ccccn1 (stereo not given)	0.44	0.02
CCO[C@H]1OC(C(=O)Nc2ccccc2)=C[C@@H](C2CC2)[C@@H]1CCCO	0.47	0.33
CCOc1ccc(OCC)c(NC(=O)C2CCCN2S(=O)(=O)c2cccc3cccnc23)c1 (stereo not given)	1.13	1.24
COc1cccc(-c2nnc3sc(-c4ccco4)nn23)c1	0.46	1.89
CN1CCc2c(sc(/N=C/c3c[nH]c4ccccc34)c2C#N)C1	0.01	-0.03
CCCc1cc(=O)[nH]c(SCC(=O)NC(=O)c2ccccc2)n1	1.99	0.04
Cc1cc2nsnc2c(S(=O)(=O)NCC(=O)O)c1C	0.43	0.58
CCO[C@@H]1OC(C(=O)NCc2ccccc2)=C[C@H](C2CC2)[C@H]1CCCO	0.07	1.15
CCN(CC(=O)Nc1ccc(NC(C)=O)cc1)C(=O)C(c1ccccc1)c1ccccc1	0.34	-0.86
Cn1cnnc1SCc1ccc(C(=O)N=Nc2c(O)n(C)c3ccccc23)cc1	1.65	-0.43
O=C(/C=C/c1ccccc1)Nc1cccc(C(=O)O)c1	0.91	-1.78
Cc1cc(=O)oc2cc(OCC(=O)OCC(=O)Nc3c(C)n(C)n(-c4ccccc4)c3=O)ccc12	0.43	-1.49
O=C(NC1CCCC1)C1CC(=O)N(c2ccc(F)cc2)C1 (stereo not given)	0.08	-1.12
COc1cc(NC(=O)c2ccc(COCC(F)(F)F)o2)cc(OC)c1OC	0.05	0.07
CC(NC(=O)c1cn(C)c2ccc(S(=O)(=O)N3CCCC3)cc2c1=O)c1ccc2c(c1)OCCO2 (stereo not given)	0.46	0.77
C=CCc1ccc(OCCn2cncn2)c(OC)c1	1.26	0.04
CCCc1nnc(SCC(=O)Nc2ccc(OCC)cc2)n1N	0.35	1.27
O=C(Nc1ccc(F)cc1)c1cc(-c2ccccc2)no1	0.64	-0.81
Cc1cccc2cc(COC(=O)c3cccs3)c(=O)[nH]c12	1.04	0.11
CCOc1ccc(-n2c(SCC(=O)Nc3ccc(Br)cc3)nc3n[nH]c(C)c3c2=N)cc1	0.67	1.19
COc1ncnc2c1cnn2-c1ccccc1	1.44	-0.52
Cc1cc(C(=O)CSc2nc(N)cc(=O)[nH]2)c(C)n1CCc1ccc(F)cc1	0.05	0.21

Some of these compounds in order of number of heavy atoms, highest first:
mol	KCNQ2 enhance	KCNQ2 enhance baseline
Cc1cc(=O)oc2cc(OCC(=O)OCC(=O)Nc3c(C)n(C)n(-c4ccccc4)c3=O)ccc12	0.43	-1.49
CCO[C@@H]1OC(C(=O)NCc2ccccc2)=C[C@H](C2CC2)[C@H]1CCCO	0.07	1.15
CCO[C@H]1OC(C(=O)Nc2ccccc2)=C[C@@H](C2CC2)[C@@H]1CCCO	0.47	0.33
O=C(NC1CCCC1)C1CC(=O)N(c2ccc(F)cc2)C1 (stereo not given)	0.08	-1.12
O=C(c1cc2ccccc2s1)N1CCOCC1	1.6	-1.27

(more compounds)
mol	KCNQ2 enhance	KCNQ2 enhance baseline
Cc1nnc(NC2=NCCC2)o1	0.84	-1.41
COc1ccc(CCNC(=O)COC(=O)c2cccs2)cc1OC	1.65	-0.13
Cc1ccccc1OCC(=O)Nc1ccc(S(=O)(=O)N2CCOCC2)cc1	1.14	-0.08
CCOC(=O)c1ccc(NC(=S)N2CCN(Cc3ccccc3)CC2)cc1	0.47	-1.19
Cc1ccc(C)c2c1cc(C)c1nnc(SCC(=O)NCc3ccc4c(c3)OCO4)n12	0.62	0.67
COc1cccc(-c2ccc(=O)n(CC(=O)NCCN3CCOCC3)n2)c1	0.21	0
CCOC(=O)C1CCN(CC(=O)Nc2c(C(=O)OC)[nH]c3ccc(Cl)cc23)CC1	0.42	0
O=C(NNC1=Nc2cc([N+](=O)[O-])ccc2OC1)c1ccccc1Cl	0.95	-1.09
CC(=Nc1cc(C(=O)c2ccccc2)ccc1N)C1=C(O)CC(C)(C)CC1=O	0.55	-0.01
O=C(CCCCCNc1nc(=S)[nH]c2ccccc12)NCCc1ccccc1	0.06	-0.43
O=C(O)CC(Sc1n[nH]c(=S)s1)C(=O)O (stereo not given)	1.14	-1.61
C#CC[N+](CC)(CC)CC#Cc1cccc(Cl)c1	1.16	-1.3
CC(=O)N1C(C(=O)O)CSC1c1ccc(C)cc1 (stereo not given)	0.03	3.27
O=C(c1nc2ccc(Cl)cn2c1CN1CCC(CO)CC1)N1CCc2ccccc2C1	0.09	0.02
Cc1ccc(/C=N/NC(=O)Cc2ccc(Cl)cc2)c(O)c1	0.1	1.31
Cc1c(NC(=S)N/N=C/c2ccc(O)cc2)c(=O)n(-c2ccccc2)n1C	0.67	-0.07
COc1ccccc1N=C(C)C1=C(O)CSC1=O	0.2	-1.09
O=C(NCc1ccccc1)C(c1ccc(F)cc1)N(C(=O)c1csnn1)C1CC1 (stereo not given)	0.83	-0.2
Cc1cccc2c1CC(C)(C)NC2=C(C#N)C#N	0.59	0.39
COC(=O)c1c(C)[nH]c(C(=O)OCc2ccc(F)cc2)c1C	0.03	1.07
N#CC1=C(N)Oc2cc(N)ccc2C1c1cccc(F)c1 (stereo not given)	0.06	-0.41
O=C(Cc1c(F)cccc1Cl)Nc1nccs1	0.39	0.01
COc1ccc(-c2csc3ncnc(NCCCO)c23)cc1	1.48	-0.26
O=C(CCSc1nnc(-c2ccncc2)o1)Nc1ccccc1	0.91	-0.38
CCOC(=O)N1CCN(C(=S)NC(=O)c2ccnn2C)CC1	0.53	0.37
O=C(NN1CCOCC1)c1cccc(F)c1	0.58	1.78
CCCCCN(C(=O)CCCSc1nncs1)c1c(N)n(CCCC)c(=O)[nH]c1=O	0.01	0.78
COc1ccc(C(=O)/C=C/N(C)C)cc1	0.74	2.34
COc1ccc(-c2coc3c(C)c4oc(=O)c(CCC(=O)O)c(C)c4cc23)cc1	0.69	-0.01
CCC(C)(C)NC(=O)C(c1cccc(OC)c1OC)N(CCC(C)C)C(=O)CCC(=O)Nc1cc(C)on1 (stereo not given)	0.64	-0.19
CCCCCC(=O)Nc1cccc(C2=NOC3(C2)C[C@H](C(N)=O)N(C(=O)CC)C3)c1 (stereo not given in full)	0.75	0.1
Cc1ccc2nc(SCC(=O)N3CCOCC3)[nH]c2c1	0.4	0.47
CCOc1ccc(Br)cc1S(=O)(=O)N1CCC(C(N)=O)CC1	0.47	0.4
COc1ccc(-c2nsc(SCC(=O)Nc3cc(C)on3)n2)cc1	0.47	0.06
C[C@H](CO)NC(=O)[C@H](C)[C@@H]1C[C@@]1(C)[C@@H](NC(=O)OCc1ccccc1)c1ccccc1	0.23	-0.54
COc1ccc2ccccc2c1CN1CCCC(CO)C1 (stereo not given)	1.24	2.22
CCOc1ccccc1-c1noc(CCC(=O)NC2CCCCC2)n1	1.65	-0.28
COc1ccc(-c2cn(CCc3c[nH]c4ccccc34)nn2)cc1	0.09	-1.24
COc1ccc(-c2cc(=O)oc3cc(OC(=O)C4CCCCC4)ccc23)cc1	0.27	1.18
CC(NC(=O)c1ccc(CS(C)(=O)=O)cc1)c1cccc2ccccc12 (stereo not given)	0.4	-2.12
Fc1c(F)c(C(F)(F)F)c(F)c(F)c1N/N=C\c1cccs1	0.08	-3.54
COc1ccccc1N1CC(C(=O)Nc2nnc(SCc3ccccn3)s2)CC1=O (stereo not given)	0.82	0.3
COCCNC(=O)c1cccc(Nc2nc(-c3ccccc3)c3cc(Cl)ccc3n2)c1	0.36	0.63
CCN(CC)S(=O)(=O)c1ccc(N/N=C(\C)c2ccc3c(c2)OCO3)c([N+](=O)[O-])c1	1.23	0.73
Nc1nc(CN2CCN(C(c3ccccc3)c3ccccc3)CC2)nc(Nc2ccccc2)n1	0.64	3.22
CN(CC(=O)NCc1ccncc1)S(=O)(=O)c1ccccc1	0.61	-0.81
COc1ccc(N2CCN(S(=O)(=O)c3cc4c(cc3C)NC(=O)CO4)CC2)cc1	0.14	0.93
CCCn1c(SCC(=O)N2CCN(C(=O)c3ccco3)CC2)nc2ccccc2c1=O	0.29	-0.03
CCN(CC)CCOC(=O)c1cccc(Cl)c1	0.68	0.55
Cc1csc2c(N3CCN(S(=O)(=O)c4ccc(Cl)cc4)CC3)ncnc12	1.3	-0.78
Cc1cc(NC(=O)CCN2C(=O)/C(=C\c3ccccc3)SC2=S)no1	0.17	0.05
Brc1c(CSc2nncn2-c2ccccc2)nc2ncccn12	0.16	2.64
CC(C)(C)NS(=O)(=O)c1ccc(CCC(=O)N2CCCCC2)cc1	0.24	-0.08
COc1ccccc1C(C)NC(=O)CCOc1cccc(C)c1 (stereo not given)	0.2	-1.13
O=C(O)/C=C/c1ccc2c(-c3ccccc3)onc2c1	0.55	1.22
Cc1cc(Cl)ccc1NC(=S)N1CCN(C(=O)c2ccco2)CC1	0.23	-0.33
CC(C)CNS(=O)(=O)c1ccc(CCC(=O)N2CCC(C(N)=O)CC2)cc1	0.47	-0.04
Cc1cccc(NC(=O)c2onc3c2CCCC3)n1	0.82	0.44
COc1ccccc1NS(=O)(=O)c1cc(NC(=O)CNC(=O)c2ccccc2)ccc1C	0.01	-1.46
O=C(Nc1ccc([N+](=O)[O-])cn1)C1CCCCC1	1.11	2.01

The listing continues:
mol	KCNQ2 enhance	KCNQ2 enhance baseline
CN(CCNC(=O)c1ccc(/C=N/O)nc1)Cc1ccccc1	0.16	0.63
C=C(C)Cn1c(=O)c2c(nc3n2CCN3c2cccc(Cl)c2C)n(C)c1=O	0.2	0.1
OC(COCCC12CC3CC(CC(C3)C1)C2)CN1CCCCC1 (stereo not given)	0.78	-1.38
CCC(CO)N=CC1=C(O)CC(c2ccccc2)CC1=O (stereo not given)	1.08	-0.19
Cc1cc(N)c(-n2cc3c(=O)n(C)c(=O)n(C)c3c2)cc1C	0.08	0.9
O=C(CSCc1ccccc1)N1CCN(Cc2ccc3c(c2)OCO3)CC1	0.41	0.85
CC1(c2nnc(-c3ccc(F)cc3)o2)CC(c2ccc([N+](=O)[O-])cc2)=NO1 (stereo not given)	0.62	-1.85
CCCCn1c(SCC(N)=O)nc2sc3c(c2c1=O)CCC3	0.05	0.54
CCN1CCN(Cc2nc3ccc([N+](=O)[O-])cc3c(=O)n2-c2ccc(OC)cc2OC)CC1	0.6	-1.72
CC(=O)Nc1ccc(S(=O)(=O)N(C)CCOCc2ccccc2)cc1	1.3	-0.8
Cc1cc(C)n(C(=O)CNC(=O)c2ccccc2F)n1	1.7	-0.89
CN1CC(=O)N(CC(=O)Nc2ccc3c(c2)CCC3)C1=O	0.64	-2.94
O=C(CSCc1ccccc1Br)N/N=C/c1ccc(OCC(=O)N2CCCCC2)cc1	1.16	-0.89
Cc1oc(CC(C)C)cc1C(N)=O	1.19	-0.08
CC(C)n1c(SCC(=O)NC2CC2)nnc1-c1ccco1	0.91	0.77
Cc1ccccc1C(=O)NCC(C)NC(=O)c1ccccc1C (stereo not given)	1.11	-1.68
O=C(NCCN1CCCC1)c1cccc(Cl)c1	1.82	0.7
CCOC(=O)c1cnc(N2CCOCC2)[nH]c1=O	1.15	-1.34
COc1ccc(NC(=O)CNS(=O)(=O)c2ccc(Cl)cc2)cc1OC	1.22	1.82
Cc1ccc(-c2nc(SCC(=O)Nc3cc(C)on3)c3c(=O)n(C)c(=O)n(C)c3n2)cc1	1.09	0.16
N#Cc1cn(CC(=O)NCCc2c[nH]c3ccccc23)c2ccccc12	0.8	-0.72
CCN1CCN(C(=O)c2cc3c(=O)n(C)c4ccccc4c3n2C)CC1	1.44	-0.33
CCOc1ccc(S(=O)(=O)N2CCN(C(=O)c3ccc(-n4cncn4)c([N+](=O)[O-])c3)CC2)cc1	0.1	0.24
CC(=O)Nc1ccc(S(=O)(=O)N(C)CC(=O)Nc2ccc(Br)cc2F)cc1	0.03	1.14
CCN(CC)S(=O)(=O)c1ccc(OC)c(NC(=O)/C=C/c2ccco2)c1	0.02	-2.22
CCN(CC)S(=O)(=O)c1ccc(S(=O)(=O)N(CC(=O)Nc2ccccc2)Cc2ccco2)cc1	0.62	-0.21
CCN(CC)S(=O)(=O)c1ccc(OC)c(NC(=O)c2ccc(-n3cncn3)c([N+](=O)[O-])c2)c1	1.02	0.2
CCCCc1c(C)nn(-c2nnc3c4ccccc4n(C)c3n2)c1C	0.98	0.25

Complete entries, looked up by structure:
`Cc1ccccc1C(=O)NCC(C)NC(=O)c1ccccc1C` (stereo not given) reads KCNQ2 enhance: 1.11; KCNQ2 enhance baseline: -1.68
`CC(=O)Nc1ccc(S(=O)(=O)N(C)CCOCc2ccccc2)cc1` reads KCNQ2 enhance: 1.3; KCNQ2 enhance baseline: -0.8

Not all compounds are listed; rates above refer to the full screens.
